# TAR Tat displ = HIV-1 TAR-Tat binding disruption; HIV-1 TAR RNA, Tat peptide displacement FRET; hits give high values; z-score (no concentration beside the values); actives 0.6% (n = 100,000); AID 1259389;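 note: score is relative to mean and SD of negative controls; some compounds called inactive have numbers as strong as hits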
# CDC25B CDK2 inh = human CDC25B-CDK2/CyclinA binding inhibition | P30305+P24941 | HTRF CDC25B-CDK2/CyclinA binding, anti-His/anti-Flag; hits give high values | z-score (no concentration beside the values) | actives 0.72% (n = 94,000) | AID 1259370;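 note: score is relative to mean and SD of negative controls; strong numbers were not always called active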
# An asterisk follows results filed as active; · = no result given.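 Rule for the calls: active = z-score from 3 up in half or more of its runs; inactive = the rest.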 Compounds as they come (roughly 0.94% active in at least one column).
item	SMILES	TAR Tat displ	CDC25B CDK2 inh
1	Cn1c(=O)oc2cc(S(=O)(=O)N3CCc4ccccc4C3)ccc21	0.23	-0.4
2	O=C1CC(=O)Nc2cc(S(=O)(=O)NC3CCCCCCC3)ccc2N1	·	1.3
3	CCc1ccc(NC(=O)CSc2nnc(C)n3c2cc2oc(C)cc23)cc1	1.9	·
4	CC1=CCC23CC1C(=O)C=C2CC(C)(C)CC3=O (centres undefined)	·	-1.7
5	Cn1c(=O)c2c(-c3cccc(Br)c3)c(Nc3ccccc3)oc2n(C)c1=O	1.4	·
6	Clc1cccc(-c2nnc3sc(COc4ccccc4)nn23)c1	1.8	-1.1
7	O=C(Nc1cccc2nsnc12)c1cc(-c2cccs2)[nH]n1	-2.3	·
8	Cc1ccc(C2CC(=O)Nc3c2c(C)nn3-c2nncc(-c3ccc(F)cc3)n2)cc1C (centres undefined)	1.3	·
9	O=C(NCc1ccc(-n2cccn2)cc1)c1cnn2c1NC(c1ccco1)CC2C(F)(F)F (centres undefined)	-3.7	-1.4
10	CCN(CC)S(=O)(=O)c1ccc2c(c1)CC(C(=O)NCCc1ccco1)N2C(C)=O (centres undefined)	1.2	·
11	COc1ccccc1-n1cc2c(c1-c1ccccc1)c(=O)n(-c1ccccc1)n2C	0.75	-1.6
12	COc1cccc(Nc2nc(N3CCN(CCO)CC3)nc3c2cnn3C)c1	1.3	·
13	CN=C1NS(=O)(=O)C(c2ccc(C)cc2)=C1C	-0.6	-1.8
14	Cc1c(O)c(Sc2ccccc2)c(=O)n(-c2ccccc2)c1-c1ccccc1	·	-1.2
15	Cc1cc(N2CCN(C(=O)c3ccco3)CC2)n2ncnc2n1	·	-1.1
16	COc1ccc(-c2c(N)n[nH]c2C)cc1OC	0.76	-2.2
17	Cc1c(C)c2c(c(C)c1O)CCC(C)(CN1CCN(c3cc(N4CCCC4)nc(N4CCCC4)n3)CC1)O2 (centres undefined)	-3.2	·
18	Cc1ccc2nc3c(cc(C#N)c(=O)n3-c3ccc(Br)cc3)c(=O)n2c1	-1.3	4.3
19	CCOC(=O)C(O)(c1ccc(N=Cc2ccccc2O)cc1)C(F)(F)F (centres undefined)	·	-0.33
20	Cc1ccccc1-c1noc2ncnc(NCc3ccccc3)c12	-0.28	·
21	COc1ccc(C(O)c2cccs2)cc1OC (centres undefined)	-0.31	0.18
22	COCCNc1nc(Nc2ccc(C)c(C)c2)c2cnn(C)c2n1	2.2	·
23	O=C(OCCSCCS(=O)(=O)c1ccc(Cl)cc1)c1ccccc1Cl	·	-1
24	COc1ccc(-c2coc3cc(O)ccc3c2=O)cc1	2.2	·
25	Nc1nccc(-c2ccc([N+](=O)[O-])cc2)n1	·	-0.81

# (further entries)
item	SMILES	TAR Tat displ	CDC25B CDK2 inh
26	COc1ccc(C2=NN3C(C2)c2ccccc2OC3c2ccc(C)cc2)cc1OC (centres undefined)	0.05	-0.83
27	Cc1ccc(N2CC(O)=C(c3nc4ccccc4n3C)C2=N)cc1O	-1	-2.5
28	CC1(C)O[C@@H]2CC3C4CCC5=CC(=O)C=C[C@]5(C)[C@@]4(F)[C@@H](O)C[C@]3(C)[C@]2(C(=O)CO)O1 (some centres undefined)	-1.1	·
29	Cc1nonc1NC(=O)OC1CCCCC1	1.4	-0.92
30	CCN(CC)CCNC(=O)c1c2c(nc3ccccc13)C(=O)N(C1CCCCC1)C2	0.49	·
31	Cc1nc2nc(CN)nn2c(C)c1CCC(=O)NCC1CCN(CCc2cccs2)CC1	0.96	1.1
32	CCOC(=O)C1Sc2[nH]c(=O)sc2C(c2ccc(Cl)cc2)C1C(=O)OCC (centres undefined)	·	0.25
33	Cc1cc(C)nc(NCc2cccnc2)n1	2	-0.97
34	CC(Sc1nc2ncccc2o1)C(=O)Nc1ccc2c(c1)OCCO2 (centres undefined)	-0.13	·
35	COC(=O)c1c(SCc2cccc(Cl)c2)[nH]c2ccccc2c1=O	0.88	·
36	Cn1nc(C(C)(C)C)cc1C(C)(C)C	·	-2
37	CN(Cc1ccco1)C1CCCCC1NS(=O)(=O)c1ccccc1 (centres undefined)	2.1	-1.5
38	Oc1ccccc1C1CC(c2ccccc2)=NC(c2cccs2)N1 (centres undefined)	0.81	-0.18
39	COc1ccc(Cl)cc1NC(=O)CSc1nc2c(c(=O)n1C)SCC2	1.2	-1.8
40	O=S(=O)(NCCc1ccccc1)c1cccc2nsnc12	·	-0.81
41	Cc1nnc(SCC(=O)Nc2ccc(Cl)cc2)s1	·	-1.8
42	Cc1nnc(SCC(=O)NC2CC2)c2nn(-c3ccccc3)c(C)c12	0.42	·
43	C1=C(CCNc2nc3ccccc3n3nnnc23)CCCC1	0.35	-0.36
44	CCOC(=O)c1[nH]c(C)c(CN(Cc2ccco2)C(=O)C2CCCCC2)c1C	0.46	·
45	COc1ccc(Cl)c(NC(=O)C2=Cc3ccccc3OC=C2)c1	-1	-0.96
46	Cn1c(=O)c2sccc2n2c(CCCC(=O)N3CCN(c4ccc(F)cc4)CC3)nnc12	-1.2	·
47	O=C(CN1CCCC1)N1CCCc2c1c(=O)oc1ccc(O)cc21	·	-0.52
48	COc1ccc(-c2nc(CSc3nncn4c3cc3occc34)c(C)o2)cc1	-7.8	·
49	O=C(c1noc2c1COc1ccccc1-2)N1CCc2ccccc2C1	-0.39	-1.2
50	Cc1ccc(-c2cc3nc(C)c(-c4ccccc4)c(N)n3n2)cc1	0.78	-1.2

# Further records follow:
item	SMILES	TAR Tat displ	CDC25B CDK2 inh
51	Cc1ccc(Cl)cc1-n1ncc2c(NCc3ccccn3)ncnc21	1.8	·
52	C=C1CC[C@@H]2[C@](C)(CO)[C@H](O)CC[C@@]2(C)[C@@H]1C/C=C1/C(=O)OC[C@H]1O	1.8	·
53	Cc1sc2nc(SCC(=O)NCc3ccco3)[nH]c(=O)c2c1C	·	-3.6
54	O=C1c2cccnc2C(O)N1Cc1cccs1 (centres undefined)	·	-1.1
55	Cn1c(=O)n(C)c2cc(S(=O)(=O)N(Cc3ccco3)C(=O)c3ccco3)ccc21	-0.13	1.4
56	CC(C)(C)c1ccc(C2C3=C(CCCC3=O)NC3=C2C(=O)c2ccccc23)cc1 (centres undefined)	-0.69	-0.75
57	Cc1cc2c(c(C)nn2-c2ccccc2)c(=O)o1	3.6	0.64
58	Cc1cc(Cc2ccc(N)c(C)c2)ccc1N	2.4	-3.3
59	CCOC(=O)c1c(NC(=O)c2nc(S(C)(=O)=O)ncc2Cl)sc2c1CCCC2	0.51	-1.5
60	CC(C)C1N=C2c3ccccc3N=C(SCC(=O)Nc3ccc(Br)cc3)N2C1=O (centres undefined)	0.16	·
61	CCCC(C(=O)NCc1cccs1)N1Cc2ccccc2C1=O (centres undefined)	2.4	·
62	CN(C)c1ccc2c(c1)Sc1cc(N(C)C)ccc1N2C(=O)c1ccccc1	·	-1.3
63	O=C(Nc1ccccc1)NC(c1ccccc1)c1nnc(-c2ccccc2)o1 (centres undefined)	1.5	·
64	COCc1nn2cc(-c3ccc(C)cc3)nc2s1	0.68	0.1
65	CCC1CN(C(=O)Nc2cc(C)cc(C)c2)c2cc(C)ccc2O1 (centres undefined)	0.47	·
66	O=C(Oc1ccc2c(c1)oc(=O)c1ccccc12)c1cccs1	0.34	11
67	CCCCOC(=O)C1=C(C)NC2=C(C(=O)CC(C)(C)C2)C1c1cccc2ccccc12 (centres undefined)	2.5	-2.5
68	CCOc1c(N2CCOCC2)c(=O)c1=O	-0.85	·
69	O=C(c1ccc2c(c1)sc1nc(-c3ccccc3)cn12)N1CCN(C2CCCCC2)CC1	1.5	·
70	CN=C1SC(CC(=O)O)C(=O)N1C (centres undefined)	·	0.79
71	CCCSCCCNC(=O)NC1COc2ccccc2C1 (centres undefined)	0.25	·
72	Cc1cc(C)cc(N2C(=O)N(Cc3ccccc3F)C3CS(=O)(=O)CC32)c1 (centres undefined)	0.33	·
73	CC1=C(c2ccccc2)S(=O)(=O)NC1=NCCCN1CCC(Cc2ccccc2)CC1	-0.71	-0.25
74	ONC(=Nc1ccc(C(F)(F)F)cc1)c1c(F)cccc1F	·	-0.69
75	CCOC(=O)c1ccc2[nH]c(CSc3nnc(-c4ccco4)n3C)cc(=O)c2c1	-1.7	·

# Grouped by structure: the entries above with an NH in an aromatic ring
item	SMILES	TAR Tat displ	CDC25B CDK2 inh
7	O=C(Nc1cccc2nsnc12)c1cc(-c2cccs2)[nH]n1	-2.3	·
16	COc1ccc(-c2c(N)n[nH]c2C)cc1OC	0.76	-2.2
32	CCOC(=O)C1Sc2[nH]c(=O)sc2C(c2ccc(Cl)cc2)C1C(=O)OCC (centres undefined)	·	0.25
35	COC(=O)c1c(SCc2cccc(Cl)c2)[nH]c2ccccc2c1=O	0.88	·
44	CCOC(=O)c1[nH]c(C)c(CN(Cc2ccco2)C(=O)C2CCCCC2)c1C	0.46	·
53	Cc1sc2nc(SCC(=O)NCc3ccco3)[nH]c(=O)c2c1C	·	-3.6
75	CCOC(=O)c1ccc2[nH]c(CSc3nnc(-c4ccco4)n3C)cc(=O)c2c1	-1.7	·

# Additional compounds
item	SMILES	TAR Tat displ	CDC25B CDK2 inh
76	O=S(=O)(NCc1cccnc1)c1ccc2ccccc2c1	-0.49	-0.1
77	O=C(CN1C(=O)CSc2ccc(C(=O)N3CCCCC3)cc21)N1CCCC1	0.94	·
78	CCOC(=O)c1nc(-c2ccccc2)sc1C(=O)/C=C/N(C)C	·	-1.6
79	O=C(Nc1cc(F)ccc1F)C1CCCN(C(=O)c2cnn(-c3ccc(F)cc3)c2-n2cccc2)C1 (centres undefined)	0.08	·
80	O=C(c1cnn(-c2ccc(Cl)cc2)n1)c1cccs1	·	-2.3
81	COC(=O)c1nnn(-c2cc(OC)cc(OC)c2)c1C(=O)OC	-1.1	-3.8
82	N#C/C(=C\Nc1ccc2c(c1)C(=O)OC2)C(=O)c1cccs1	·	-2.9
83	CSc1cccc(N2C(=O)COc3ccc(Br)cc3C2C(=O)NC2CCCC2)c1 (centres undefined)	2.5	·
84	CCOc1nc2ccccc2nc1C(=O)N1CCN(C(=O)c2ccco2)CC1	0.49	·
85	COC(=O)c1sccc1NC(=O)NCc1cccn1Cc1c(C)cc(C)cc1C	-0.03	-0.7
86	Cc1nc(Nc2ccccc2)nc(=O)n1-c1ccccc1	5	-1.1
87	O=C(NCCc1c[nH]c2ccccc12)C1COc2ccccc2C1 (centres undefined)	-0.04	·
88	CCOc1ccc(C2=Cc3cc(OC)c(OC)cc3C(=C(Cl)Cl)O2)cc1	·	0.77
89	CCCCOC(=O)C1Cc2ccccc2C(=O)O1 (centres undefined)	·	-0.82
90	COC(=O)C(C(=S)NC(C)=O)=P(c1ccccc1)(c1ccccc1)c1ccccc1	·	-0.26
91	COc1ccc(C2CC(=O)C3=C(C2)NC(C)=C(C#N)C3c2ccc(F)cc2)cc1 (centres undefined)	0.44	0.23
92	CCN(CC)CCNC(=O)Cn1ncn2nc(-c3cccs3)cc2c1=O	-0.79	-1.5
93	COc1cccc(C2C(C#N)=C(N)Oc3n[nH]c(C)c32)c1OC (centres undefined)	-0.01	-1.1
94	C=CCN[C@H]1CS(=O)(=O)C[C@@H]1S(=O)(=O)c1ccc(F)cc1	-0.42	-0.27
95	CCN(CC)C(=O)C1CC(c2ccc(F)cc2)=NO1 (centres undefined)	0	-1.5
96	CCCN(CCC)C(=O)c1cnn(-c2ccc(F)cc2)c1-n1cccc1	0.69	·
97	Cn1cnc2c1c(=O)n(Cc1ccccc1C#N)c(=O)n2C	·	-1.2
98	CCc1ccc(S(=O)(=O)c2cnc3ccccc3c2N2CCN(C)CC2)cc1	0.82	0.84
99	COc1ccc(NS(=O)(=O)c2ccc3c(c2)CC(=O)N3)c(OC)c1	-0.67	-1.1
100	O=C(O)c1ccccc1C(=O)Nc1ncc(S(=O)(=O)c2ccc([N+](=O)[O-])cc2)s1	·	-2.4

# Quoted from the listing.
# For CDC25B CDK2 inh, CCc1ccc(S(=O)(=O)c2cnc3ccccc3c2N2CCN(C)CC2)cc1 is entered as 0.84
# For CDC25B CDK2 inh, N#C/C(=C\Nc1ccc2c(c1)C(=O)OC2)C(=O)c1cccs1 is entered as -2.9

# Some of these compounds in order of length of the SMILES, smallest number first:
item	SMILES	TAR Tat displ	CDC25B CDK2 inh
53	Cc1sc2nc(SCC(=O)NCc3ccco3)[nH]c(=O)c2c1C	·	-3.6
96	CCCN(CCC)C(=O)c1cnn(-c2ccc(F)cc2)c1-n1cccc1	0.69	·
99	COc1ccc(NS(=O)(=O)c2ccc3c(c2)CC(=O)N3)c(OC)c1	-0.67	-1.1

# Carrying on:
item	SMILES	TAR Tat displ	CDC25B CDK2 inh
101	CCN1CCCC1CNC(=O)C1c2ccccc2C(=O)N(CC(C)C)C1c1cccs1 (centres undefined)	3.1	·
102	COc1cc([N+](=O)[O-])ccc1N=c1ssnc1Cl	·	-0.24
103	N#Cc1c(N)nc2c(c1-c1ccc(Cl)cc1)CCCC2	·	-3.1
104	CCOc1cc(C2/C(=C(/O)c3ccc(C)cc3)C(=O)C(=O)N2CC(C)O)ccc1O (centres undefined)	0.79	-1.2
105	CCOC(=O)c1c(S(=O)(=O)Nc2c(Cl)cc(OC)cc2OC)c(C)n(C)c1C	3.9	·
106	Cc1nc(N(C)C)cc(N2CCN(C(=O)Nc3cccc(Cl)c3)CC2)n1	0.02	2.3
107	O=C(NC1CCN(c2nccc(C(F)(F)F)n2)CC1)c1ccco1	·	-1.9
108	c1nc(NCCc2ccc3c(c2)OCCO3)c2c3c(sc2n1)CCCC3	-0.04	·
109	CCSc1nc(-c2ccc(C)cc2)nc2c1Cc1c(CO)cnc(C)c1O2	1	·
110	O=C(Oc1ccccc1)c1nc(S(=O)(=O)Cc2ccccc2Cl)ncc1Cl	0.9	0.41
111	Cc1ccc(S(=O)(=O)Nc2ccc(Cl)c3cccnc23)cc1	2.3	0.07
112	COC(=O)c1c(NC(=O)c2cc(=O)c3c(C)cc(C)cc3o2)sc2c1CCCC2	2	-1.3
113	O=C(NCC1CCCO1)c1ccc2c(c1)nc1n2CCCC1 (centres undefined)	-0.04	·
114	CN(C)c1ncnc2c1cnn2-c1cccc(Cl)c1	1.4	·

# Screening data deposited in PubChem BioAssay by Center for Chemical Genomics, University of Michigan.
